Compound activity (PubChem)
KCNQ2 inh: KCNQ2 channel blockers in CHO-K1 cells – cell-based, FluxOR thallium flux, B-score, primary screen (AID 2156); 20 min; stronger effect = lower value; only compounds with negative scores are shown here; some inactives read as strong as hits; O88943; 310,000 tested, 1.1% active; B-score at 10 µM;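 active = fluorescence ratio B-score at most minus 3 library SDs, with starting brightness B-score within 2 library SDs, cut at about -5.5 in these data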
Target sequence (O88943 whole entry, looked up): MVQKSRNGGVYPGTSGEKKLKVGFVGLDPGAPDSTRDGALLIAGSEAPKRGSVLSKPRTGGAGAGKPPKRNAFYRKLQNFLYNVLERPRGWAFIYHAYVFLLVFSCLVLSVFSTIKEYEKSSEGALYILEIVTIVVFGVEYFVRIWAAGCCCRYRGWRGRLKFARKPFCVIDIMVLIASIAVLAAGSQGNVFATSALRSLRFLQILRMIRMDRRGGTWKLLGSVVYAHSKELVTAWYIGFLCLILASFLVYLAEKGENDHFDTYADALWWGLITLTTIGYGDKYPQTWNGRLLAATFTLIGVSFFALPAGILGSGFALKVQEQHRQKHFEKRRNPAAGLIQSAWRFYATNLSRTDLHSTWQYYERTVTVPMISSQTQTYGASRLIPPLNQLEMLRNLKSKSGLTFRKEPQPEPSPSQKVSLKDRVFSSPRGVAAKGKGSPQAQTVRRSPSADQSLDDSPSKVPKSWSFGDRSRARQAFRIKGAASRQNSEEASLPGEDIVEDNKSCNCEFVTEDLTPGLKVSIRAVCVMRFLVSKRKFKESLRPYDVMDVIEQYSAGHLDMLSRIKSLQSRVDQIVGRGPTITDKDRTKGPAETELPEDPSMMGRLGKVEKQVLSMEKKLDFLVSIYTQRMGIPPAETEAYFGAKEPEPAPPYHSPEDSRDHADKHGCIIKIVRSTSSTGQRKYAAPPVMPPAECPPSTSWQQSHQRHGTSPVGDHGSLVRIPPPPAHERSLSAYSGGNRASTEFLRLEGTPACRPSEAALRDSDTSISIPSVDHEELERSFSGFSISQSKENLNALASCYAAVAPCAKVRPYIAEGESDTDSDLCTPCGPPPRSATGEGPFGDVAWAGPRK
KCNQ2 inh baseline: also measured in KCNQ2 inh; calls as there; B-score; measured here: initial fluorescence intensity artifact check;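 brightness before thallium and not channel activity; 0 = typical well and far values either way flag optical interference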
* = called active by the depositor; i = inactive. Only part of the results is shown (hit frequency here may not be typical).

Screens in order: KCNQ2 inh | KCNQ2 inh baseline
CN1C(=O)N(c2ccc(Cl)cc2)C(C)(O)CC1(C)C (stereo not drawn)
 : i | -0.69
O=C(CS(=O)(=O)Cc1ccccc1)NCc1ccc2c(c1)OCO2
 : i | -1.6
Cc1ccc(C2(c3noc(CN(C)CC4CCCCO4)n3)CCCC2)cc1 (stereo not drawn)
 : i | 0.01
CCCCCCCCSc1nnc(-c2ccc(OC)cc2)o1
 : i | 0.57
COc1ccc(CN2CCNC(=O)C2CC(=O)NC2CCOCC2)c(F)c1 (stereo not drawn)
 : i | 0.31
COc1ccc(-n2nnnc2SCC(=O)N2CCCC2)cc1OC
 : i | -0.79
Nc1nnc(SCC(=O)Nc2ccc3nc(SCC(=O)Nc4ccccc4)sc3c2)s1
 : i | -0.05
COc1cc(/C=N/NC2=NC(C)(C)Cc3ccccc32)cc(OC)c1OC
 : -5.6* | -2.2*
O=C(N/N=C/c1ccc[nH]1)c1ccc(O)cc1
 : i | 0.29
CN(Cc1ccccc1)C(=O)CCNC(=O)Cn1cnc2ccccc2c1=O
 : i | -0.01

Compounds shown so far containing sulfur (4):
Screens in order: KCNQ2 inh | KCNQ2 inh baseline
O=C(CS(=O)(=O)Cc1ccccc1)NCc1ccc2c(c1)OCO2
 : i | -1.6
CCCCCCCCSc1nnc(-c2ccc(OC)cc2)o1
 : i | 0.57
COc1ccc(-n2nnnc2SCC(=O)N2CCCC2)cc1OC
 : i | -0.79
Nc1nnc(SCC(=O)Nc2ccc3nc(SCC(=O)Nc4ccccc4)sc3c2)s1
 : i | -0.05

Continuation:
Screens in order: KCNQ2 inh | KCNQ2 inh baseline
O=C(NCCN1CCOCC1)c1cc(S(=O)(=O)Nc2ccccc2F)c(Cl)cc1Cl
 : i | 0.74
COc1cc(/C=C/C(=O)CC(=O)/C=C/c2ccc(O)c(OC)c2)ccc1O
 : i | 13
Cc1cc(NC(=O)CSc2nc3c(cc2C#N)CCCCC3)no1
 : i | 0.33
Cc1cc(C)nc(N2CCCC(CCC(=O)NCc3ccc(F)c(F)c3)C2)n1 (stereo not drawn)
 : i | -0.73
Cc1ccc(-n2c(C)nn(CC#N)c2=O)cc1
 : i | 1.9
CCc1nnc(SCC(=O)NCCC2=CCCCC2)nc1CC
 : i | 0.48
O=C(Oc1ccc2c3c(c(=O)oc2c1)CCCC3)c1ccco1
 : i | 0.86
COc1ccc(S(=O)(=O)N2CCCC2)cc1C(C)C
 : -6.9* | -0.82*
FC(F)Oc1ccc(NC(=S)NCc2ccccc2)cc1Cl
 : i | -2.2
Nc1cccc2nsnc12
 : i | 0.07
O=C(NCC1CCCO1)C(=Cc1cccc([N+](=O)[O-])c1)C(=O)NCC1CCCO1 (stereo not drawn)
 : i | -2
Cc1[nH]c(=O)c(C#N)c(C)c1Cl
 : i | 0.39
CN(C)CCCNc1ncc(C(F)(F)F)cc1Cl
 : i | 0.18
COc1cccc(C2NC(=O)NC(C)=C2C(=O)Nc2ccc(C)cc2)c1 (stereo not drawn)
 : i | 0.37
Cc1cccc(N(C(=O)CNC(=O)c2ccco2)C(C(=O)NC2CCCCC2)c2cccnc2)c1 (stereo not drawn)
 : i | 3.3
O=C(Nc1ccc2c(c1)C(=O)NC2=O)c1ccc2ncsc2c1
 : i | 2.2
CCN(CC)CCn1c2c(c(SCC(=O)Nc3nc4ccccc4s3)nc1=O)CCCC2
 : i | 1.7
Cc1cc(=O)oc2cc(OCc3ccc(C(=O)N4CCN(c5ccc([N+](=O)[O-])cc5)CC4)cc3)ccc12
 : i | -0.93
CC1CCN(CC(O)COc2cccc(F)c2)CC1 (stereo not drawn)
 : i | 1.6
COc1ccc(NC(=O)Nc2cc(C)ccc2OC)cc1
 : i | 0.01
C=CCNC(=O)/C(=C\C=C\c1ccccc1)NC(=O)c1ccc(OCCCC)cc1
 : i | 0.07
CC(C)C(NC(=O)OCc1ccccc1)C(=O)NC(Cc1ccc(O)cc1)C(=O)O (stereo not drawn)
 : i | 0.57
CC(C)CNC(=O)CC(c1ccccc1)c1c(O)ccc2ccccc12 (stereo not drawn)
 : i | 1.3
Cc1ccc(S(=O)(=O)N(C)c2ccccc2)cc1
 : i | 1.9
Clc1ccc(CSc2nnc(-c3ccccn3)n2Cc2ccco2)c(Cl)c1
 : i | 0.35
CCOc1cc(/C=N/OC(C)=O)ccc1OCc1ccccc1
 : i | 0.07
CCNc1cc(N2CCN(S(=O)(=O)c3ccc4c(c3)CCCC4)CC2)ccc1[N+](=O)[O-]
 : i | 0.69
CCCn1c(=O)c2ccccc2n2c(SCC(=O)c3ccc(CC)cc3)nnc12
 : i | 0.07
CCC(C)(C)NC(=O)Cn1c(=O)oc2cc(S(=O)(=O)N3CC(C)CC(C)C3)ccc21 (stereo not drawn)
 : i | -1.8
Cc1ccccc1NC(=O)CN1C(=O)COc2ccc(S(=O)(=O)N3CCCC3)cc21
 : i | 1.3
Cc1ccc(NC(=O)CSCCc2ccccn2)nc1
 : i | -0.24
Cc1ccc(C(=O)NC(=S)Nc2ccc(NC(=O)c3cccs3)cc2)cc1[N+](=O)[O-]
 : i | 0.02
Cc1ccc(-n2c(SCC(=O)O)nc3c(sc(=S)n3-c3ccc(C)c(C)c3)c2=O)cc1
 : i | -1.2
O=C(Nc1ccccc1)Nc1cnccn1
 : i | -1.1
Cc1nnc(NC(=O)CSc2nnc(Cc3cccn3C)n2-c2cccc(C(F)(F)F)c2)s1
 : i | -0.18
Cc1ccc(NS(=O)(=O)c2ccc3c(c2)oc(=O)n3C)cc1C
 : i | -1.6
O=[N+]([O-])c1cc(S(=O)(=O)C(F)(F)F)ccc1Sc1nc2ccccc2s1
 : i | -1.2
CCCNC(=O)c1ccc2c(=O)c(O)c(-c3ccsc3)[nH]c2c1
 : i | 2.6
CS(=O)(=O)c1nc(-c2ccco2)cc(C(F)(F)F)n1
 : i | -1.3
Cc1cccc(Nc2ccc(C(=O)N3CCOCC3)cn2)c1
 : i | 2.4

5 entries picked at random from those above:
Screens in order: KCNQ2 inh | KCNQ2 inh baseline
Cc1ccc(C(=O)NC(=S)Nc2ccc(NC(=O)c3cccs3)cc2)cc1[N+](=O)[O-]
 : i | 0.02
CS(=O)(=O)c1nc(-c2ccco2)cc(C(F)(F)F)n1
 : i | -1.3
O=C(Nc1ccccc1)Nc1cnccn1
 : i | -1.1
Cc1ccc(NS(=O)(=O)c2ccc3c(c2)oc(=O)n3C)cc1C
 : i | -1.6
O=[N+]([O-])c1cc(S(=O)(=O)C(F)(F)F)ccc1Sc1nc2ccccc2s1
 : i | -1.2

Next section:
Screens in order: KCNQ2 inh | KCNQ2 inh baseline
COc1cc(NS(=O)(=O)c2ccc(NC(C)=O)cc2)nc(OC)n1
 : i | 0.71
C=C(C)CC1Nc2ccccc2NC1CC(=C)C (stereo not drawn)
 : i | -0.34
COc1ccc(/C=N/NC(=O)c2cccc(OC(F)(F)C(F)F)c2)cc1O
 : i | 0.07
COC(=O)c1ccc(NS(=O)(=O)c2ccc(-c3cc(C)no3)s2)cc1
 : i | -0.2
O=C(O)/C=C/C(=O)Nc1ccc(-n2ccc(C(F)(F)F)n2)cc1
 : i | -0.03
Fc1ccc(CSc2nncn2NC/C=C/c2ccccc2)cc1
 : i | 0.8
Cn1cccc1CNC(=S)Nc1ccccc1Cl
 : i | 0.23
COc1ccc(C(=O)Nc2ccc(NC(=O)c3cc(OC)c(OC)c(OC)c3)cn2)cc1
 : i | -1.6
CCCc1ccc(S(=O)(=O)NCCc2ccncc2)cc1
 : i | -0.31
CCn1c(CCC(=O)Nc2cc(F)ccc2C)nc2cc(S(=O)(=O)N(C)C)ccc21
 : i | -1.4
N#Cc1cc2cc3c(cc2nc1NCCNC(=S)NCCCN1CCOCC1)OCO3
 : i | 2.1
CC(C)Sc1nnc(CNC(=O)C23CC4CC(CC(C4)C2)C3)n1C1CCCCC1
 : i | 0.36
O=C(Nc1ccc(N2CCOCC2)c(Cl)c1)c1ccc(-n2cnnc2)cc1
 : i | 0.67
COc1ccc(N2CCN(C(=O)CN(c3cccc(Br)c3)S(C)(=O)=O)CC2)cc1
 : i | -0.05
CCOC(=O)c1c(C)[nH]c(C(=O)N/N=C/c2ccc(OC)c(OC)c2)c1C
 : i | 0.98
N#Cc1cc(N)ccc1Sc1ccccc1
 : i | 0.45
CCCCN1C(=O)NC(NC(=O)C2CC2)(C(F)(F)F)C1=O (stereo not drawn)
 : i | -2.6
CCc1cc(C(c2ccc(OC)c(OC)c2)N2CCOCC2)c(NC(=O)c2ccccc2)s1 (stereo not drawn)
 : i | 0.85
COc1ccc(/C=N/n2cnc3c([nH]c4ccc(Br)cc43)c2=O)cc1CN1CCOCC1
 : i | -0.17
COC(=O)c1ccc(CSc2nnc(Nc3ccccc3OC)s2)o1
 : i | 1.6
Nc1nnc(SCC(=O)Nc2ccc(N3CCOCC3)cc2)s1
 : i | -0.49
CCc1ccc(CN(C)CC(=O)Nc2sccc2C#N)cc1
 : i | 0.71
COc1ccc(C(=O)Nc2ncc3c(n2)CC(c2ccco2)CC3=O)cc1 (stereo not drawn)
 : i | -0.08
O=C(NCCCCCc1nc2ccccc2[nH]1)c1ccccc1Cl
 : i | -3.1
COc1ccc(CSc2nnc(C)n2N)cc1Br
 : i | -1.9
O=C(CCCc1nc(-c2ccccc2Cl)no1)NCc1cccnc1
 : i | -0.18
COCCN(C(=O)CSc1nnc(-c2cccc(F)c2)n1N)c1c(N)n(CC(C)C)c(=O)[nH]c1=O
 : i | -1.1
Cc1cc(C)c(S(=O)(=O)Nc2ccc(C(N)=O)cc2)c(C)c1
 : i | -2.4
CCn1c(=O)cc(OCC(=O)N2CCN(c3cccc(C(F)(F)F)c3)CC2)c2ccccc21
 : i | -1.3
CC(=O)c1ccc(S(=O)(=O)N2CCCc3ccccc32)cc1
 : i | -0.84
Nc1nnc(-c2ccc(Cl)c(Cl)c2)s1
 : i | -0.79
CC(=O)c1ccc(NC(=S)Nc2ccn(Cc3ccc(Br)cc3)n2)cc1
 : i | -0.67
CCn1c(=N)n(CC(=O)c2cccc(OC)c2)c2ccccc21
 : i | -0.44
C=CCC1(C(=O)N(C)Cc2ccccc2)CCN(C(=O)OC(C)(C)C)CC1
 : i | 0.03
Brc1cnc(N2CCCCC2)nc1N1CCOCC1
 : i | -0.03
CC(C)C(C(=O)Nc1nccs1)c1ccccc1 (stereo not drawn)
 : i | -0.05
CCCCCOc1ccc(CSc2ncn[nH]2)cc1
 : i | -0.31
CCn1c([N+](=O)[O-])nc2c1c(=O)[nH]c(=O)n2C
 : i | -2.5
CCC(Sc1ccccn1)C(=O)Nc1cccc([N+](=O)[O-])c1 (stereo not drawn)
 : i | -0.48
COc1ccc(CN2CCNC(=O)C2CC(=O)N(C)Cc2nc(C)cs2)c(OC)c1 (stereo not drawn)
 : i | 0.57
O=C(COC(=O)Cn1cnc2ccccc2c1=O)Nc1cc(Cl)ccc1[N+](=O)[O-]
 : i | 1.6
CC(C)c1ccc(/C=C/C(=O)NCCC2=CCCCC2)cc1
 : i | -0.44
CCOc1ccc(N(C(C)C(=O)N2CCOCC2)S(C)(=O)=O)cc1 (stereo not drawn)
 : i | 0.28
Cc1cccc(NC(=O)C(C)N2C(=O)c3ccccc3S2(=O)=O)n1 (stereo not drawn)
 : i | -0.05
COc1ccc(C)cc1NC(=O)C(OC(=O)CNC(=O)c1cc(C)cc(C)c1)c1ccccc1 (stereo not drawn)
 : i | -0.83
COC(=O)c1ccccc1NC(=O)COc1ccccc1
 : i | 1.1
O=C(NC1CCCCC1)c1cccs1
 : i | -0.44
O=C(Nc1ccc(-n2cc(Br)cn2)cc1)c1ccncc1
 : i | 3.9
COc1ccc(NC(=O)CCCn2nc(C)c3c(C)n(-c4ccccc4)nc3c2=O)cc1OC
 : i | -0.02
CCN(CC)S(=O)(=O)c1cccc(NC(=O)COC(=O)CCC(=O)c2ccc(F)cc2)c1
 : i | -1.2

The listing continues:
Screens in order: KCNQ2 inh | KCNQ2 inh baseline
CCN(CC(=O)NCc1ccc(Cl)cc1)C(=O)c1ccc2cc(OC)ccc2c1
 : i | 1.5
O=C(Nc1nncs1)c1ccc(F)c(S(=O)(=O)N2CCCCC2)c1
 : i | 0.05
O=c1c(Cl)c(NCc2ccccc2Cl)cnn1C12CC3CC(CC(C3)C1)C2
 : i | 0.59
CSc1ccc(C(=O)C2CCCN(Cc3cccc4nccnc34)C2)cc1 (stereo not drawn)
 : i | -0.09
CC(C)CN(CC(C)C)C(=O)CCCC(=O)N(CC(C)C)CC(C)C
 : i | 1.4
O=C(CN(Cc1ccco1)C(=O)c1ccc(N2CCCC2=O)cc1)Nc1ccccc1C(F)(F)F
 : i | -0.01
COc1ccc(OC)c(NC(=O)c2cc3c(Cl)nc4ccccc4c3s2)c1
 : i | -0.69
NC(=O)c1cc(S(=O)(=O)N2CCN(c3ccc([N+](=O)[O-])cc3)CC2)cs1
 : i | -0.71
COc1ccc(CNC(=O)CSc2nnc(-c3cccnc3)n2N)cc1
 : i | -0.08
CCc1cc2c(=O)c(-c3nc4ccccc4n3C)c(C)oc2c(CN2CCN(C)CC2)c1O
 : i | -1.2
NC(=O)C1CCN(C2=C(NS(=O)(=O)c3ccc(Cl)cc3)C(=O)c3ccccc3C2=O)CC1
 : i | -0.95
Cc1ccc(S(=O)(=O)N[C@@H](CC(C)C)C(=O)NCc2ccco2)cc1
 : i | 1.8
Cc1cc(C(=O)OCC(=O)N2CCOCC2)c2ccccc2n1
 : i | 0.42
COC(=O)Cn1c(=NC(=O)CSC(C)=O)sc2ccccc21
 : i | 2.2
CCn1c(=O)n(CC(=O)N2CC(C)CC(C)C2)c(=O)c2ccccc21 (stereo not drawn)
 : i | 1.6
COc1cc(-c2cc(C(=O)Nc3ccc(O)cc3)c3ccccc3n2)cc(OC)c1OC
 : -7.7* | -0.3*
O=C(CN1CCC(n2cnc3cc(F)ccc32)CC1)Nc1ccccc1Br
 : i | -0.05
CC(=O)/C(=N/Nc1ccc(Br)cc1)Sc1cccc2cccnc12
 : i | 0.46
CCCCn1c(NCc2ccccn2)nc2ccccc21
 : i | -1.1
COC(=O)COC(=O)c1ccc(O)cc1
 : i | 1.1
